From PubChem
NS1 function inh – qHTS Assay for Inhibitors of Influenza NS1 Protein Function; S. cerevisiae slowed by influenza A NS1, growth recovery by OD600; Potency, µM (doses to about 46.1 µM), for the others: at the highest dose activity, positive = more growth; 270,000 compounds, 0.4% hits; AID 2326, 2010; note: actives are rising curves; nearly all actives have a fitted effect of over 50% in size
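Recovery from NS1-induced slow growth read by OD600 in budding yeast switched to galactose assay medium (pH 6.0, -URA) at 1:100 dilution. Compound 23 nl per well; the matching strain lacking NS1 serves as control.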
LASV entry inh – qHTS for Inhibitors of binding or entry into cells for Lassa Virus. Lassa virus pseudotype entry inhibition, cell reporter; control for the full effect not named in the record. Potency, µM (highest dose often 37.9 µM), for inactives: at the highest dose activity change, negative = inhibition, hits mostly inhibitors. 300,000 compounds, 1.2% hits. AID 540256, 2011; active means well fitted inhibition curve with a large enough effect; inconclusive means small, poorly fitted or top-dose-only effect, or effect the other way; inactive means flat fitted curve, though single readings scatter; tested in HEK293 cells; note: % is set by controls: 0 for no effect and ±100 for the full control effect; nearly all actives have a fitted effect of over 50% in size; luciferase read-out
Marburg entry inh – qHTS for inhibitors of binding or entry into cells for Marburg Virus | Marburg virus pseudotyped entry inhibition, cell reporter; control for the full effect not named in the record; about a third of the inactives were read at about 46 µM | Potency, µM (titrated, usually from 37.8 µM), for the others: top-dose activity change, negative = inhibition, hits mostly inhibitors | 300,000 compounds, 1.8% hits; active = well fitted inhibition curve with a large enough effect; inconclusive = small, poorly fitted or top-dose-only effect, or effect the other way; inactive = flat fitted curve, though single readings scatter; tested in HEK293 cells; about a fifth of its hits are not listed in these tables; note: % is set by controls: 0 for no effect and ±100 for the full control effect; luciferase read-out
SARS PLpro yeast – qHTS of Yeast-based Assay for SARS-CoV PLP; S. cerevisiae expressing SARS-CoV PLpro, growth rescue; control for the full effect not named in the record; 330,000 compounds, 0.19% hits; AID 485353, 2010; Potency, µM (top dose mostly 32.9 µM), for inactives: at the top dose activity, positive = growth rescue; note: 0% is about no effect; nearly all actives have a fitted effect of over 55% in size; growth read by luminescence after 48 h
Cruzain inh Det – qHTS Assay for Promiscuous and Specific Inhibitors of Cruzain (with detergent); Cruzipain (Trypanosoma cruzi), P25779; purified cruzain, Z-FR-AMC fluorescence, 0.01% Triton; Potency, µM, without a hit: max response, negative = inhibition, hits mostly inhibitors; 200,000 compounds, 0.43% hits; AID 1478, 2009; active = well fitted curve in the direction sought with a large enough effect; inconclusive = small, poorly fitted or top-dose-only effect, or another doubt; inactive = no such curve, though single readings can be large; an effect the other way counts as inactive or inconclusive;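 note: plate controls were neutral wells for no effect and buffer without enzyme for full effect; nearly all actives have a fitted effect of over 40% in size; top concentration of the series not given in the record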
Target sequence (P25779 123-467 limits assumed): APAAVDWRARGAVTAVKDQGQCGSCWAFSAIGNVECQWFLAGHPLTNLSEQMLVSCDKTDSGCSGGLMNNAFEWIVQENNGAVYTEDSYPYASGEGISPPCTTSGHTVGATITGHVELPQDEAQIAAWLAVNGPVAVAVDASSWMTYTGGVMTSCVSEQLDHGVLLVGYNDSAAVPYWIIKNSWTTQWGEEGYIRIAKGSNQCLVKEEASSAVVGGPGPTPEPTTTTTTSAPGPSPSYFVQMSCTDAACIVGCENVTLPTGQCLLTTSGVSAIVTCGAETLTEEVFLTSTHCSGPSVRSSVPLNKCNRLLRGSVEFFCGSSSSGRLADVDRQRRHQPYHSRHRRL
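Detergent-containing arm of a paired screen for aggregation-based inhibition: 0.01% Triton X-100 present. Cruzain at 1.5 nM cleaved 2 uM Z-FR-AMC at pH 5.5 with 5 mM DTT; AMC fluorescence gain over 60 s measured activity.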
RE007 growth inh – qHTS Assay for Inhibitors of the HIV-1 protein Vpr; 360,000 compounds, 0.21% hits; S. pombe RE007 Vpr strain, BacTiter-Glo ATP luminescence, 24 h; control for the full effect not named in the record; Potency, µM (doses to about 92.2 µM), inactives show top-dose activity change, negative = less growth; active = well fitted falling curve with a large enough effect; inconclusive = small, poorly fitted or top-dose-only effect; inactive = no such curve, though single readings can be large or run the other way;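 note: % is set by controls: 0 for no effect and ±100 for the full control effect; nearly all actives have a fitted effect of over 50% in size; the assay follows cell death caused by Vpr and the record does not say whether a fall means rescue or toxicity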
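Fission yeast RE007 carrying one integrated HIV-1 vpr copy, seeded at OD 0.01 in PMG+AL medium with 23 nL pinned compound. Grown 24 h at 30 degrees; viability read by BacTiter-Glo luminescence after 5 min.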
2A StopGo – High Throughput Screening for Foot and Mouth Disease Virus Antivirals. Potency, µM (titrated, usually from 57.9 µM), inactives show top-dose signal change, negative = less light. 410,000 compounds, 1.2% hits. human cells with a luciferase reporter of 2A StopGo recoding; control for the full effect not named in the record; active = well fitted falling curve with a large enough effect; inconclusive = small, poorly fitted or top-dose-only effect; inactive = no such curve, though single readings can be large or run the other way; tested in HEK293T cells; note: % is set by controls: 0 for no effect and ±100 for the full control effect; nearly all actives have a fitted effect of over 45% in size; luciferase light after 4 h
Cruzain inh noDet – qHTS Assay for Promiscuous and Specific Inhibitors of Cruzain (without detergent). Cruzipain (Trypanosoma cruzi), P25779. purified cruzain, Z-FR-AMC fluorescence, no detergent. Potency, µM, for the others: max response, negative = inhibition, usual class: inhibitors. 200,000 compounds, 2.3% hits. AID 1476, 2009; active = well fitted curve in the direction sought with a large enough effect; inconclusive = small, poorly fitted or top-dose-only effect, or another doubt; inactive = no such curve, though single readings can be large; an effect the other way counts as inactive or inconclusive;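 note: plate controls were enzyme without inhibitor for no effect and buffer without enzyme for full effect; nearly all actives have a fitted effect of over 40% in size; top concentration of the series not given in the record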
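Purified cruzain at 1.5 nM, pre-incubated 15 min with compound at room temperature in 100 mM sodium acetate pH 5.5, 5 mM DTT, 0.00005% Triton X-100. Reaction started with 2 uM Z-FR-AMC; AMC fluorescence increase over 60 s gives rate.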
The depositor's hits bear a star; ? = inconclusive; . = no result given; & = joins results of further samples; [ ] = another dose, or the depositor's remark. Unless noted, calls come from the whole dose curve; as a rule, active means well fitted rising curve with a large enough effect; inconclusive means small, poorly fitted or top-dose-only effect; inactive means no such curve, though single readings can be large or run the other way. Potency is the fitted concentration of half-maximal effect. Random draw from the library. Share with any hit: about 4.7%.

SMILES	NS1 function inh	LASV entry inh	Marburg entry inh	SARS PLpro yeast	Cruzain inh Det	RE007 growth inh	2A StopGo	Cruzain inh noDet
COC(=O)Cc1[nH]c(=O)[nH]c1C(=O)OC	0%	-4%	8%[46.1 µM]	0%	.	7%	42%[activator]	.
CCc1ccc(C(=O)c2cn(CC(=O)Nc3cc(C)ccc3C)c3nc(C)ccc3c2=O)cc1	.	-14%[46.1 µM]	.	.	0.7%	.	7%	4%
CCOC(=O)c1c(NC(=O)c2ccc(Cl)s2)sc(C)c1C	-8%	.	.	9%	3.4%	-6%	-23%	-1%
Cc1ccc(S(=O)(=O)N(C)C)cc1NC(=O)CCc1c[nH]c2ccccc12	.	-18%	-13%[14.2 µM]	1%	.	-13%	?	.
COc1ccc(CNC(=O)Cn2nc3c(cc2=O)CCCC3)cc1	.	0%[46.1 µM]	.	.	-0.3%	.	-18%	5%
CCCCn1c(N)c(N(CCOC)C(=O)c2cccc(S(=O)(=O)N3CCCCC3)c2)c(=O)[nH]c1=O	.	6%	25%[46.1 µM]	3%	.	-14%	2%	.
CCC(NC(=O)C1CCCC1)c1ccc(C)cc1 (configuration not stated)	5%	.	.	0%	.	23%	-15%	.
Cc1ccc(C)c(NC(=O)c2ccccc2O)c1	-210%	-20%	?	-29%	-6.0%	-3%	-20%	5%
Cc1cccc(Oc2ccc(NC(=O)c3ccccc3C(=O)O)cc2)c1	-2%	.	.	0%	.	-1%	13%	.
O=C(Nc1nnc2n1CCS2)c1ccc(Br)o1	14%	.	.	16%	.	5%	-7%	.
COc1ccc(Br)cc1CNC(=O)Cn1c(=O)c2cccn2c2ccc(F)cc21	.	0%[46.1 µM]	.	.	-2.1%	.	-22%	4%
COc1cc(C=O)ccc1OCCOCCOc1ccc(Cl)cc1	-49%	-15%	?	-2%	-1.7%	4%	?	1%
COc1ccccc1NC(=O)C(C)OC(=O)c1nc2nc(C)cc(C)n2n1 (configuration not stated)	.	-3%	12%	-6%	.	0%	-7%	.
COc1ccc(CNC(=O)c2ccc3c(O)c(S(=O)(=O)c4ccccc4)c(=O)[nH]c3c2)cc1	.	-19%[46.1 µM]	.	.	-1.6%	.	-6%	10%
O=C1c2cc(Br)ccc2O[C@@H](c2ccc3c(c2)OCO3)[C@@H]1O	.	?	?	.	1.8%	.	.	-16%
N#Cc1c(SCC(=O)Nc2ccccc2)nsc1SCC(=O)Nc1ccccc1	24%	4%[46.1 µM]	?	30%	-3.1%	12%	-12%	?
Cc1cc(F)ccc1S(=O)(=O)NCC(c1ccco1)S(=O)(=O)c1cccs1 (configuration not stated)	.	-6%[46.1 µM]	.	.	0.2%	.	59%[activator]	15%
Cc1cccc(OCCCC(=O)Nc2ccc(N3CCCCC3)cc2)c1C	13%	5%	3%	3%	5.3%	0%	11%	20µM*
O=C(Nc1nccs1)c1ccc(Br)s1	-40%	.	.	-8%	.	0%	0%	.
COc1ccc(C2C(C(C)=O)=C(C)N=c3s/c(=C\c4cc(C)n(C)c4C)c(=O)n32)c(OC)c1 (configuration not stated)	?	?	?	2%	-3.4%	0%	-8%	?
COc1ccc(-c2cc(C3CCNCC3)[nH]n2)cc1	10%	.	.	12%	.	9%	2%	.
O=C1/C(=C/c2cc([N+](=O)[O-])ccc2Cl)N2CCC1CC2	-32%	7%	11%	-16%	1.5%	-17%	3%	-4%
O=C(O)c1cc2c(ccc3ccccc32)[nH]1	-34%	11%	3%	-8%	-5.3%	0%	-7%	-4%
COc1cccc2cc(C(=O)N3CC(C)OC(C)C3)c(=O)oc12 (configuration not stated)	0%	.	.	0%	.	3%	-20%	.
Cc1ccc(C)c(Cn2c(SCC(=O)NCc3ccccc3)nc3ccccc32)c1	.	-30%[46.1 µM]	.	.	0.5%	.	-28%	0%
CSc1ncccc1C(=O)N(C)CC(=O)Nc1ccc(Cl)c(C(F)(F)F)c1	-2%	-13%	?	-1%	.	-2%	?	.
N=c1sccn1CC(=O)Nc1ccccc1-c1ccccc1	?	4%	-9%	8%	0.7%	17%	8%	7%
O=C(O)c1ccccc1-c1ccc(/C=c2\sc3nc4cc(Br)cnc4n3c2=O)o1	14%	?	-9%&-9%	6%	-4.6%	-29%	-28%	7%
Cc1cn2c(=O)cc(COC(=O)c3ccc(NC(=O)COc4ccccc4C)cc3)nc2s1	.	-27%[46.1 µM]	.	.	0.2%	.	-5%	14%
CCCc1nc(N)c(C#N)c(-c2ccco2)c1CC	-7%	0%	-10%	-2%	-8.3%	1%	-19%	-25%
COc1ccc(OC)c(NC(=O)N2CCC(N3CCN(Cc4ccc(F)cc4)C(=O)C3=O)CC2)c1	.	-7%[46.1 µM]	.	.	1.1%	.	5%	18%
COc1ccc(C(=O)NCc2cnn(C)c2)cc1OC1CCN(C(C)C)CC1	-7%	24%[46.1 µM]	?	-2%	.	-1%	10%	.
CCOC(=O)C1CCN(C(=O)c2ccc3c(Cl)c4c(nc3c2)CCCC4)CC1	4%	.	.	-3%	.	-16%	49%[activator]	.
COc1ccc(NC(C)=O)cc1S(=O)(=O)N1CCN(C(=O)c2ccccc2F)CC1	4%	.	.	0%	.	-19%	-16%	.
NC(=O)CC(NC(=O)Cc1ccc(Cl)cc1)c1ccc(NC2CCCCCCC2)c([N+](=O)[O-])c1 (configuration not stated)	11%	.	.	-3%	.	0%	0%	.
Clc1ccc(CNc2ccccc2NCc2ccc(Cl)nc2)cn1	-2%	?	?	-2%	.	-6%	?	.
CCOC(=O)N1CCC(NC(=O)c2cc(COc3ccccc3SC)on2)CC1	-3%	-28%	-20%	4%	.	6%	0%	.
CCC1CCCCN1C(=O)Nc1ccc(F)cc1 (configuration not stated)	-2%	-21%[14.3 µM]	3%	4%	7.3%	0%	26%	4%
COCCCNC(=S)NNC(=S)Nc1ccccc1	-33%	16%	?	-4%	.	3%	74%[activator]	.
CCS(=O)(=O)N1Cc2ccccc2CC1C(=O)Nc1ccc(F)c(F)c1F (configuration not stated)	11%	.	.	0%	.	5%	50%[activator]	.
CC(C)(C)C(=O)Nc1ccc(S(=O)(=O)N2CCC(c3nc4ccccc4[nH]3)CC2)cc1	.	?	-21%	0%	.	-15%	-6%	.
O=C(COC(=O)CNC(=O)c1ccc(Cl)cc1)Nc1cccc(S(=O)(=O)N2CCCC2)c1	5%	.	.	-1%	.	14%	-2%	.
COCCn1c(NC(=S)NC(=O)C2CC2)cc(=O)[nH]c1=O	11%	18%	-1%	0%	.	1%	-7%	.
CC(C)(C)C(=O)/C=C(N)/C=C/c1ccccc1	-13%	17%	?	-3%	-8.5%	-12%	13%	-4%
COc1ccc(C2C(=O)N(C3CCCCCC3)CC(=O)N2Cc2ccccc2)cc1 (configuration not stated)	.	?	.	.	2.1%	.	-29%	-15%
CSCC(C)N1CCC(n2nccc2NC(=O)c2ccc3c(c2)OCO3)CC1 (configuration not stated)	2%	12%[46.1 µM]	?	2%	.	7%	0%	.
O=C(Nc1cc(N2CCOCC2)ncn1)Nc1cccc2ccccc12	-57%	-25%	-16%	6%	2.4%	-8%	.	?
CCN(CC)c1ccc(NC(=O)CCN2C(=O)c3ccccc3S2(=O)=O)c(C)c1	.	-1%	14%[46.1 µM]	-2%	.	4%	-23%	.
CN1CCN(C(=O)CN(c2ccccc2)S(=O)(=O)N(C)C)CC1	1%	?	?	1%	.	14%	1%	.
O=C(NCCCn1ccnc1)c1cc2ccccc2o1	4%	10%	9%[46.1 µM]	-1%	.	-11%	18%	.
CCOC(=O)C(C)n1nc(/C=C/c2ccc(OC)cc2)ccc1=O (configuration not stated)	.	-17%	4%[46.1 µM]	-8%	.	26%	-14%	.
COC(=O)c1cc(NC(=O)c2c(Cl)nc3sccn23)cc(C(=O)OC)c1	-8%	8%	?	4%	3.8%	1%	?	-5%
CCN(CC)C(=O)c1cc2c(=O)oc3ccccc3c2s1	-2%	-9%[14.3 µM]	14%	-8%	-7.4%	-2%	23%	-2%
Brc1ccc(CSc2nnc(-c3ccco3)o2)cc1	-33%	9%	?	-36%	-6.7%	-23%	39%[activator]	4%
O=C(NCC1(c2ccccc2)CCCC1)c1cccc(Br)c1	-2%	?	?	4%	-0.8%	16%	-12%	-8%
Cc1ccc(S(=O)(=O)Nc2nncs2)cc1	-4%	-1%	-5%	-3%	4.8%	5%	.	3%
C/C(CC(=O)Nc1ccc2c(c1)OCO2)=N\NC(=O)c1ccc(N)cc1	3%	-40%[46.1 µM]	?	1%	.	7%	-10%	.
CCSc1nnc(-c2cc3c(s2)-c2ccccc2CC3)o1	0%	-16%	?	-3%	-7.5%	-24%	19%	?
O=C(NCCCN1CCOCC1)c1cc(-c2ccc(Cl)cc2)on1	-8%	0%	-15%	10%	-4.6%	-7%	-9%	-21%
O=C(COc1ccc(S(=O)(=O)N2CCOCC2)cc1)N1CCc2ccccc2C1	2%	.	.	-1%	.	15%	0%	.

The listing continues.
SMILES	NS1 function inh	LASV entry inh	Marburg entry inh	SARS PLpro yeast	Cruzain inh Det	RE007 growth inh	2A StopGo	Cruzain inh noDet
CC(=O)N(/N=C/c1ccc([N+](=O)[O-])o1)c1nc2ccccc2c(=O)n1-c1ccccc1	0%	.	.	0%	.	-3%	-2%	.
COc1ccccc1OCCn1c(CO)nc2ccccc21	-1%	14%	2%	-4%	-1.5%	-17%	-13%	-2%
O=C(Cc1ccc(F)cc1)NCc1ccc2c(c1)CCN2C(=O)c1ccc(F)cc1	.	?	.	.	-1.5%	.	-21%	-3%
C/C(=N\Nc1cccc2ccccc12)c1c(O)n(Cc2ccccc2)c(=O)[nH]c1=O	22%	5%	?	-25%	-4.8%	.	-8%	10µM*
